Screening results from PubChem BioAssay.
HSD17B inhib – blocks hydroxysteroid 17-beta dehydrogenase activity; Q99714; recombinant HSD17B10, NADH fluorescence kinetic; many of its hits are not listed in these tables; Potency, µM (top dose mostly 57.1 µM), without a hit: at the top dose activity change, negative = inhibition, most hits filed as inhibitors; 75,000 compounds, 7.6% hits; AID 893; active means well fitted inhibition curve with a large enough effect; inconclusive means small, poorly fitted or top-dose-only effect; inactive means no such curve, though single readings can be large or run the other way;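 further: the protocol describes HADH2 (HSD17B10) and not the HSD17B4 of the title; nearly all actives have a fitted effect of over 70% in size; most hits overshoot -100% by far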
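Enzyme plus compound, 15 min room temperature; substrate mix added (NAD+ 1 mM, beta-hydroxybutyryl-CoA 90 uM final); plates read kinetically for NADH fluorescence. HADH2 was His-tagged, E. coli-derived, 20 nM.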
An asterisk follows results filed as active; ? = inconclusive; & = joins results of further samples; [ ] = another dose, or the depositor's remark. On the % scale 0 is the no-effect control and ±100 the full control effect; potency means the concentration at half of the fitted maximal effect.

SMILES	HSD17B inhib
CC(C)CN1CC[C@@]2(CCCN(C(=O)c3cc(C(F)(F)F)cc(C(F)(F)F)c3)C2)C1	2.1%
O=C(Nc1ccc(F)cc1)C1CCCN(S(=O)(=O)c2cccc3cccnc23)C1 (stereo unspecified)	3.2%
CCN(CC)S(=O)(=O)c1ccc(Nc2cc(C)nc3ncnn23)cc1	3.2%
Cn1c(Cc2csc(N)n2)nnc1SC/C=C/c1ccccc1	-25.7%
CN1CCN(C(=O)C2(NC(=O)Nc3cccc(F)c3)CCCCC2)CC1	0.3%
CC1=CC(C)(C)Nc2ccc(CSc3ccccc3)cc21	?
C=CCn1c(SCC(=O)Nc2ccc3c(c2)OCO3)nnc1-c1ccccc1	1.4%
Clc1ccccc1CSc1nnc(-c2ccccn2)n1Cc1ccco1	-3.4%
CCCc1cc(N2CCCC2)n2nc(C)c(-c3ccccc3)c2n1	31.6µM*
CCN(CC)C(=O)COC(=O)c1ccc(O)cc1	6.5%
CN(Cc1ccco1)c1cc(-c2ccccc2C(F)(F)F)ncn1	-22.9%
Cc1cc(C)c(NC(=O)C[C@H](CC(=O)O)c2cccc3ccccc23)c(C(=O)N2CCC3(CCCC3)CC2)c1	-6.9%
N#Cc1nc(-c2ccco2)oc1NCCCn1ccnc1	31.6µM*
NC(=O)C1CCN(Cc2nc(-c3ccccc3)no2)CC1	2.3%
CN1CCc2cc(NC(=O)Nc3cccnc3)ccc21	8.6%

Three structures from above, arranged by length of the SMILES, high to low.
SMILES	HSD17B inhib
C=CCn1c(SCC(=O)Nc2ccc3c(c2)OCO3)nnc1-c1ccccc1	1.4%
CN1CCN(C(=O)C2(NC(=O)Nc3cccc(F)c3)CCCCC2)CC1	0.3%
CN1CCc2cc(NC(=O)Nc3cccnc3)ccc21	8.6%

Additional records follow:
SMILES	HSD17B inhib
CC(=O)NCCNc1ccnc(-c2ccccc2C(F)(F)F)n1	?
O=C(NCC1CCCO1)C1CCN(S(=O)(=O)c2cccc3cccnc23)CC1 (stereo unspecified)	1.0%
COC(=O)c1ccc2c(=O)n(CCCN3CCOCC3)c(=S)[nH]c2c1	-4.1%
O=C(O)c1n[nH]c2ccccc12	0.3%
O=C1CC(N2CCC(c3nc4ccccc4s3)CC2)C(=O)N1 (stereo unspecified)	6.6%
CCCn1nnc(NC(=O)c2cccc(OCC)c2)n1	-2.7%
O=C(CCCn1c(=O)c2ccccc2n(Cc2ccccc2)c1=O)NCc1ccco1	8.8%
Cn1c(=O)[nH]c(=O)c2c1nc(CN1CCN(c3cccc(Cl)c3)CC1)n2CCc1ccccc1	15.1%
CCOC(=O)N1CCN(C(=O)Cn2ccc3ccccc3c2=O)CC1	-24.8%
CSc1cccc(NC(=O)C2CCN(S(=O)(=O)c3ccc(F)cc3)CC2)c1	-3.1%
COc1ccc(Br)cc1CNc1ccc(O)cc1	?
O=c1oc2c3c4c(cc2s1)CCCN4CCC3	?
CC(C)(C)Nc1nc(Oc2ccc(=O)n(-c3ccccc3)n2)nc(N2CCOCC2)n1	-1.8%
O=C(Nc1ccccc1)N1CC2(CCN(C(=O)c3ccco3)CC2)C1	-3.8%
Cc1coc2cc3oc(=O)c4c(c3cc12)CCCC4	?
COc1ccc(CCC2(C)NC(=O)NC2=O)cc1 (stereo unspecified)	20.1%
CC(C)CNC(=O)CN(C1CCCCC1)S(=O)(=O)c1ccccc1	-0.8%
CC(C)(C)c1ccc(OCc2nc(-c3ccccn3)no2)c(Br)c1	-3.7%
COC(=O)C1(S(=O)(=O)c2cccc3nsnc23)CC1	6.4%
CC(C)(C)c1ccc(O)c(CN(Cc2c(O)ccc3ccccc23)C2CCCCC2)c1	?
O=C1Nc2ccc(Br)cc2C1(O)Cc1ccncc1 (stereo unspecified)	9.2%
COCCn1c(=O)c(-c2ccc(Cl)cc2)nc2cncnc21	25.1µM*
CC(C)(C)NC(=O)c1ccc2nccnc2c1	-1.5%
FC(F)(F)c1cccc(Nc2ncnc3ccccc23)c1	0.7%
CCC1(CC)NC(=O)N(CC(=O)OCn2nnc3ccccc3c2=O)C1=O	6.6%
COc1cccc(Cn2c(=O)c(-c3cccc(C#N)c3)nc3cnc(Nc4ccccc4)nc32)c1	4.0%
CCOc1ccc2nc(NC(=O)CSc3nc4ccccc4c(=O)n3Cc3ccco3)sc2c1	-2.0%
CCCCCC(=O)N1CCN(c2ccc(C(C)=O)cc2F)CC1	-2.8%
O=C(NCc1cccs1)Nc1ccc2c(c1)OCO2	0.8%
CCOC(=O)CC(=O)CSc1nc2c(sc(=S)n2-c2ccccc2)c(=O)[nH]1	25.1µM*
CC(C)c1nc(N(C)S(C)(=O)=O)nc(-c2ccc(F)cc2)c1/C=C/C(O)CC(O)CC(=O)O (stereo unspecified)	4.3%
CCOC(=O)c1cc2ccc(OC)c(OC)c2c(=O)s1	-6.5%
O=C(COc1ccc(Cl)cc1)NCc1nnc(SCC(=O)c2ccccc2)o1	11.4%
O=C(Nc1ccc2c(c1)OCO2)C1CCCN1C(=O)Nc1ccccc1F (stereo unspecified)	-4.6%
CCC(C)n1cnc2c(c1=O)c1nc3ccccc3nc1n2-c1ccc2c(c1)OCCO2 (stereo unspecified)	-3.3%
Cc1cc(C2=CC(C)(c3cc(C)oc3C)Nc3nc(C(F)(F)F)nn32)c(C)o1 (stereo unspecified)	-18.2%
COc1cc(C2c3c(oc4ccc(C)cc4c3=O)C(=O)N2c2cc(C)ccn2)cc(OC)c1OC (stereo unspecified)	13.5%
Cn1c(=O)c2[nH]c(CCCc3ccc([N+](=O)[O-])cc3)nc2n(C)c1=O	5.6%[11.4 µM]
Cc1ccc(CS(=O)(=O)CCC(=O)NCCN2CCCC2)cc1	0.3%
CC12CCC(C(N)=O)(c3nc4ccccc4nc31)C2(C)C (stereo unspecified)	4.1%
COCCNC(=O)C1(C)C=CCN1C(C)=O (stereo unspecified)	-2.6%
CCOC(=O)C1CCN(C(=O)CNC(=O)OC(C)(C)C)CC1	3.8%
CCCOC(=O)/C(C(N)=NCc1ccccc1)=C(\O)OCCC	-10.4%
CCCN(CC1CC1)C(=O)Nc1ccccc1C	5.7%
COC(=O)COc1cccc(NS(=O)(=O)c2ccc(NC(C)=O)cc2)c1	-1.9%
CC(C)C(C)/C=C/C(C)C1CCC2C3=CC=C4CC(O)CCC4(C)C3CCC21C (stereo unspecified)	-8.6%
CCOCCCNC(=O)Cc1c(C(=O)O)[nH]c2ccc(Cl)cc12	6.2%
O=C(Cn1cc2c(n1)CCCC2)Nc1ccccc1Br	3.2%
COc1ccccc1NC(=O)CSc1nc(O)cc(=O)n1C	0.2%
Cc1cc(C)c(S(=O)(=O)NCCC2CCCN2C)c(C)c1 (stereo unspecified)	6.0%
COc1cc(OC)cc(-c2cc3nc4c(c(N5CCN(c6ncccn6)CC5)n3n2)CCCC4)c1	3.16µM*
O=C(C1CCCN(S(=O)(=O)c2cccc3cccnc23)C1)N1CCN(c2ccccc2F)CC1 (stereo unspecified)	3.2%
O=C(NCc1ccc2c(c1)OCO2)Oc1ccccc1	4.4%
COc1ccc(C(=O)N(CCN2CCOCC2)CC(=O)NC2CCCC2)cc1OC	9.3%
COC(=O)c1ccc(Oc2nc(NC(C)C)nc(N(C)C)n2)cc1	1.3%
CN1CCN(S(=O)(=O)c2ccc(NC(=O)c3ccc(Br)o3)cc2)CC1	2.5%
O=C(O)c1ccc(C(=O)O)c2c(C(=O)O)ccc(C(=O)O)c12	-1.5%[11.4 µM]
Cc1cccc(NC(=O)CC2NC3CCCCC3NC2=O)c1 (stereo unspecified)	5.1%
ClCCl	7.5%
O=C(CCCc1ccccn1)c1ccccc1	3.0%[11.4 µM]

The list continues.
SMILES	HSD17B inhib
CCC1(COC(NC(=O)c2cccnc2)(C(F)(F)F)C(F)(F)F)COC1	5.9%
CC1(C)CC(NS(=O)(=O)c2ccc(S(=O)(=O)N3CCOCC3)cc2)CCO1 (stereo unspecified)	4.9%
Cc1c(C(=O)NCc2ccc3c(c2)OCO3)oc2ccc(S(=O)(=O)N3CCCCCC3)cc12	-30.0%
COc1ccc2[nH]cc(CCNc3ncnc4ccc(-c5ccoc5)cc34)c2c1	-6.2%
O=c1[nH]c(CN2CCN(Cc3ccccc3)CC2)nc2sc3c(c12)CCC3	?
O=C(c1cn[nH]c1)c1cc(F)ccc1O	-8.5%
Cc1ccc(S(=O)(=O)N(CC(=O)N2CCC(C(N)=O)CC2)c2cccc(C(F)(F)F)c2)cc1	-4.1%
O=C(Cn1nnc(-c2ccccc2)n1)N1CCN(S(=O)(=O)c2ccc(Cl)cc2)CC1	6.5%
COc1cccc(OC)c1OCCNC[C@@H]1COc2ccccc2O1	-1.9%&-2.0%
N#CC1=C(N)C(C#N)(C#N)C2(C(=O)Nc3ccccc32)C2CCCC=C12 (stereo unspecified)	2.5%
COc1cc(N=C(N)N=C(N)N)c2ncccc2c1	3.3%[11.4 µM]
CCc1nccn1S(=O)(=O)c1cc(Br)ccc1OC	5.7%
O=CN1Cc2[nH]c3ccccc3c2N(c2ccc(Cl)cc2)C1=O	?
O=C(Nc1ccc(NC(=O)C23CC4CC(CC(C4)C2)C3)cn1)c1ccco1	?
COc1ccc(CN(CCCN2CCOCC2)C(=O)Nc2cccc(Cl)c2)cc1OC	-3.9%

The last 4 records of the part above are carried over, then new ones follow.
SMILES	HSD17B inhib
CCc1nccn1S(=O)(=O)c1cc(Br)ccc1OC	5.7%
O=CN1Cc2[nH]c3ccccc3c2N(c2ccc(Cl)cc2)C1=O	?
O=C(Nc1ccc(NC(=O)C23CC4CC(CC(C4)C2)C3)cn1)c1ccco1	?
COc1ccc(CN(CCCN2CCOCC2)C(=O)Nc2cccc(Cl)c2)cc1OC	-3.9%
COc1ccc(C(=O)N(Cc2ccco2)C(C(=O)NC2CCCC2)c2ccc(O)cc2)cc1OC (stereo unspecified)	9.5%
Cc1cc(C)nc(SCNC(=O)c2ccccc2)n1	-0.4%
O=C(NCc1cccnc1)C1c2ccccc2C(=O)N1C1CCCCCCC1 (stereo unspecified)	1.2%
Cc1nn(Cc2ccc(Cl)cc2)c(C)c1NC(=O)C1CC=CCC1C(=O)O (stereo unspecified)	0.3%
Cc1cc(NC(=O)CSc2nnc3c4c(C)c(C)sc4ncn23)no1	-1.0%
CCCn1c(OC)nc2c1c(=O)n(C)c(=O)n2C	6.8%
Cn1c(=O)c2c(nc(N3CCOCC3)n2C)n(C)c1=O	0.3%
Cc1sc2nc(C3CC3)nc(N3CCN(S(=O)(=O)c4ccc(F)cc4)CC3)c2c1C	0.1%
COC(=O)c1ccc(NC(=O)CN2CCN(S(=O)(=O)c3cc(Cl)ccc3OC)CC2)cc1	1.1%
O=c1[nH]cnc2c1oc1ccccc12	3.5%
CSc1ncccc1C(=O)OCc1ccccc1F	-9.1%
O=P(C1=C(N2CCOCC2)/C(=C\c2ccccc2)CC1)(N1CCOCC1)N1CCOCC1	-10.6%
CCOC(=O)c1sc(NC(=O)COC(=O)c2ccco2)nc1C	3.9%
Cc1ccc(-c2nc(CSCC(=O)NCCN3CCN(Cc4ccccc4)CC3)c(C)o2)cc1	3.5%
CCOC(=O)C1=C(C)NC(=O)NC1c1cccnc1 (stereo unspecified)	1.7%
O=C(NC1CCN(Cc2ccccc2)CC1)c1ccc(-n2c(=O)c(=O)[nH]c3ccccc32)cc1	-4.2%
Cc1cc(NC(=O)c2cc(-c3ccccc3)on2)n(-c2ccccc2)n1	?
O=C(CC(c1ccccc1O)N1CCCCC1)N1CCCCC1 (stereo unspecified)	10.0%
O=C(Oc1ccc2c(c1)OCO2)c1ccc(Br)c(S(=O)(=O)N2CCOCC2)c1	0.6%
CCOc1ccc2[nH]c(=O)c(CN(CCOC)C(=O)N3CCOCC3)cc2c1	25.1µM*
COC(=O)c1ccc(S(=O)(=O)NCc2cccc(OC)c2)n1C	-0.4%
COC(=O)CSc1nc2cc3c(cc2cc1C#N)OCO3	12.6µM*
CC(C)(C)NC(=O)C(OC(=O)Cn1nnc(-c2ccc(F)cc2)n1)c1ccncc1 (stereo unspecified)	6.9%
O=c1sc2ccccc2n1CCOc1ccccc1	-3.2%
Cc1cc(=O)n2ncnc2n1COCCO	3.1%
CCOC(=O)Cc1cc(=O)n2[nH]c(C)c(-c3ccccc3)c2n1	?
CC(=O)Nc1ccc(S(=O)(=O)N2CCCC2C(=O)O)cc1 (stereo unspecified)	-5.4%
COC(=O)C(F)(F)Sc1c(C)[nH]c2ccccc12	-1.5%
CC1CCCCC1NC(=O)c1cc2c(s1)CS(=O)(=O)C2 (stereo unspecified)	6.4%
Cc1cccc(NC(=O)CSc2nnc(CCCCCNC(=O)OC(C)(C)C)o2)c1C	1.8%

Pulled by compound from above:
SMILES	HSD17B inhib
COC(=O)CSc1nc2cc3c(cc2cc1C#N)OCO3	12.6µM*
O=C(CC(c1ccccc1O)N1CCCCC1)N1CCCCC1 (stereo unspecified)	10.0%

(further entries)
SMILES	HSD17B inhib
COC(=O)CNC(=O)C1(CC(C)C)C=CCN1C(C)=O (stereo unspecified)	-0.1%
O=C(Cn1cnc2ccccc2c1=O)Nc1ccc2c(c1)OCCO2	-6.1%
COc1oc(-c2ccccc2)nc1C(F)(F)F	-0.6%
COc1ccc(C(=O)NCC(c2cccnc2)N2CCN(c3ccc(F)cc3)CC2)cc1OC (stereo unspecified)	16.5%
COC(=O)NC(/C=C/c1ccco1)[C@@]1(C(=O)OC)CCCC1=O (stereo partly specified)	-1.5%[11.4 µM]
CCn1nnc(NC(=O)COc2ccc(C3CCCCC3)cc2)n1	8.5%
CC(NC(=O)Cc1cccs1)C(c1cccs1)N1CCOCC1 (stereo unspecified)	-0.6%
CCN1CCN(Cc2nc3c(c(=O)n(C)c(=O)n3C)n2C(C)C(C)=O)CC1 (stereo unspecified)	5.7%
Cc1cccc(-c2nc(CN3CCCC(C(=O)NC4CCCC4)C3)c(C)o2)c1 (stereo unspecified)	0.9%
COc1ccccc1OCCCc1c(C)n[nH]c1C	-12.6%

A portion of the library; rates above refer to the full screens.
